Polio RdRp inh – poliovirus RNA polymerase inhibition. P03300. poliovirus polymerase elongation, fluorescence polarization; active compounds read low. % elongation, % (compound at 16.7 µg/mL). 0.66% of 150,000 active; in the data active means % elongation below about 90%; further: some results filed as inactive read as strong as hits
Target sequence (P03300 1749-2209 limits assumed): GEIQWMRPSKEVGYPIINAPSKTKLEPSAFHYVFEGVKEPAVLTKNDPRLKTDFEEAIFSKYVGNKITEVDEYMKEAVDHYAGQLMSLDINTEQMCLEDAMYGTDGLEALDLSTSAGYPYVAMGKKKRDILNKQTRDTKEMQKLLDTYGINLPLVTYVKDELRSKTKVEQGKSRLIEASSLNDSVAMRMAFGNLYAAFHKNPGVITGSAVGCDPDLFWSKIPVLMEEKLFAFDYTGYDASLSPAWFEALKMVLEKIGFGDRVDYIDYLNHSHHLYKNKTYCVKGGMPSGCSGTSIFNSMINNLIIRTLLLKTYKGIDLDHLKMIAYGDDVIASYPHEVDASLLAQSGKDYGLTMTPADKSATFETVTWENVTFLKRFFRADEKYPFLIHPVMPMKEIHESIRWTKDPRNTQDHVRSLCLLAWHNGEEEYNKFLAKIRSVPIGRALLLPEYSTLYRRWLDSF
Polio RdRp inh intensity – recorded beside Polio RdRp inh, whose call it bears; % elongation; measured here: total intensity read-out; formula for this scale not given here;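 total fluorescence in place of polarization; lower means less elongation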
An asterisk follows results filed as active. Only part of the results is shown. The share of hits here may be higher or lower than overall.

Results follow in this order: Polio RdRp inh, Polio RdRp inh intensity
> Cc1nn(CC(=O)N2CCN(c3ccc(Cl)cc3)CC2)c(=O)c2cccn12
→ 109, 109
> Cc1cccc(NC(=O)c2c(NC(=O)c3ccccc3)sc3c2CCC3)c1
→ 104, 114
> Cc1cccc(N2CCN(S(=O)(=O)c3c(C)[nH]c(=O)[nH]c3=O)CC2)c1C
→ 108, 108
> COc1ccc(C2c3c(n(C)c4ccccc34)C(=O)N2CC(=O)Nc2ccccc2Cl)cc1 (configuration not stated)
→ 104, 99
> Cc1nc(Oc2ccccc2C)c2oc3ccccc3c2n1
→ 111, 114
> Cc1ccc(CNC(=O)c2cnc3c(-c4ccccc4)c(C)nn3c2C)o1
→ 110, 112
> COc1ccccc1NC(=O)CSc1ccc(-c2ccccn2)nn1
→ 103, 108
> Cc1ccc(NC(=O)CSc2nc(-c3cccs3)nc3cc(=O)[nH]n23)cc1
→ 104, 111
> CCOc1ccc(NC(=O)c2ccc3c(=O)n4nc(Nc5ccccc5C)sc4nc3c2)cc1
→ 113, 104
> COc1ccc(CNC(=O)C2CCN(S(=O)(=O)N3CCC(C)CC3)CC2)c(OC)c1
→ 113, 112
> CCCCOC(=O)c1cccc(NC(=O)c2cc3ccccc3o2)c1
→ 104, 107
> COc1ccccc1NC(=O)CSC1=Nc2ccccc2N=C(c2ccc(F)cc2)C1
→ 107, 110
> Cc1ccc2nc(N3CCN(c4cccc(C(F)(F)F)c4)CC3)c3nnnn3c2c1
→ 127, 162
> O=c1c(S(=O)(=O)c2cccc(Cl)c2)cn(Cc2ccccc2)c2cc(N3CCCCC3)c(F)cc12
→ 104, 108
> CCn1ccc2cc(S(=O)(=O)N3CCCN(C(=O)NCC(C)C)CC3)ccc21
→ 106, 107
> O=C(C1CCC(Cn2c(=O)c3sccc3n(Cc3ccccc3F)c2=O)CC1)N1CCOCC1 (configuration not stated)
→ 98, 101
> COc1ccccc1NC(=O)Cn1cnc2c(nc3n2CCCCC3)c1=O
→ 108, 115
> Cc1ccccc1C(=O)Nc1ccccc1C(=O)OCc1cc(=O)n2nc(C3CC3)sc2n1
→ 103, 101
> CC(C)c1ccc(S(=O)(=O)N2CCN(CC(=O)Nc3ccccc3C(F)(F)F)CC2)cc1
→ 105, 107
> CCn1c(=O)c2cc(C(=O)Nc3cccc(C(F)(F)F)c3)sc2c2ccccc21
→ 108, 111
> CCn1ccc2cc(S(=O)(=O)N3CCCN(C(=O)Nc4ccccc4OC)CC3)ccc21
→ 102, 108
> CCCCCOC(=O)CSc1nc2sc3c(c2c(=O)n1Cc1ccccc1)CC(C)(CC)OC3 (configuration not stated)
→ 108, 108
> COc1ccc(-c2noc(C3CC(=O)N(c4ccc(C)c(F)c4)C3)n2)c(OC)c1 (configuration not stated)
→ 112, 111
> COCCNC(=O)c1ccc(-n2c(-c3ccccc3)cc3c2CCC(C)C3)cc1 (configuration not stated)
→ 105, 103
> CCOc1ccc(NC(=O)c2ccc3c(=O)n4c(nc3c2)CCCCC4)cc1
→ 105, 100
> O=C(CCc1nnc2n(Cc3ccccc3Cl)c(=O)c3ccccc3n12)Nc1ccc(F)c(F)c1
→ 108, 111
> CCn1cc2c(n1)-c1c(oc(C(=O)Nc3cccc(C(F)(F)F)c3)c1C)CC2
→ 112, 114
> O=C(Cn1cc(SCc2ccc(F)cc2)c2ccccc21)N1CCCCCC1
→ 118, 120
> Cc1cc(Cl)ccc1NC(=O)C1CCN(c2nnc(-n3c(C)ccc3C)s2)CC1
→ 110, 110
> CCOc1ccccc1C(=O)N1CCN(CCc2ccccn2)CC1
→ 107, 108

Pulled one by one from the list above, three records:
Results follow in this order: Polio RdRp inh, Polio RdRp inh intensity
> CCn1ccc2cc(S(=O)(=O)N3CCCN(C(=O)Nc4ccccc4OC)CC3)ccc21
→ 102, 108
> Cc1cc(Cl)ccc1NC(=O)C1CCN(c2nnc(-n3c(C)ccc3C)s2)CC1
→ 110, 110
> Cc1ccc2nc(N3CCN(c4cccc(C(F)(F)F)c4)CC3)c3nnnn3c2c1
→ 127, 162

Going on with the list.
Results follow in this order: Polio RdRp inh, Polio RdRp inh intensity
> O=C(NC1CC(=O)N(c2ccc(F)cc2)C1)C(c1ccccc1)c1ccccc1 (configuration not stated)
→ 115, 112
> CCOc1ccc(-n2c(SCC(=O)N3CCCCCC3)nc3c([nH]c4ccccc43)c2=O)cc1
→ 110, 100
> O=S(=O)(Nc1cccc(C(F)(F)F)c1)c1ccc(-c2cnc(C3CC3)o2)cc1
→ 101, 106
> COc1ccc(NC(=O)Cn2c(=O)n(Cc3ccc(C(=O)NCc4ccccc4Cl)cc3)c(=O)c3ccccc32)cc1OC
→ 106, 110
> Cc1ccc(C)c(Cn2c(=O)n(-c3ccc(Cl)cc3)c(=O)c3c4c(sc32)CCC4)c1
→ 98, 98
> Cc1cc(OCC(=O)Nc2cc(-c3nc4ncccc4o3)ccc2C)ccc1Cl
→ 99, 106
> CC(C)C(=O)NCC1(N(C)C)CCCCC1
→ 103, 101
> Cc1ccccc1NC(=O)Cn1c(=O)n(CCc2ccccc2)c(=O)c2ccccc21
→ 109, 111
> O=S(=O)(c1ccccc1)c1nc(-c2ccc(Cl)cc2Cl)oc1N1CCCCCC1
→ 106, 110
> CC(=O)C1=C(c2ccc(Cl)c(Cl)c2)N(C(C)=O)n2c(nnc2-c2ccccc2)S1
→ 113, 116
> O=C(CS(=O)(=O)c1nc(-c2ccc(Cl)cc2)cn1-c1ccccc1)Nc1cccc(Cl)c1
→ 99, 99
> CCc1ccc(S(=O)(=O)c2cn(Cc3ccc(OC)cc3)c3cc(OC)c(OC)cc3c2=O)cc1
→ 104, 105
> COc1ccc(C)cc1NC(=O)CCn1nc(C)cc1C
→ 110, 96
> COc1ccc(NC(=O)c2cc3c(=O)n(Cc4cccnc4)ccc3nc2C)cc1OC
→ 103, 98
> O=C(Cn1c(-c2cccs2)cc2cc(Cl)ccc21)N1CCN(c2ccccc2F)CC1
→ 107, 109
> CCOc1ccccc1NC(=O)Cn1nnc(C(=O)Nc2ccc(C)c(C)c2)c1N
→ 114, 112
> CCc1ccc(OCC(=O)Nc2ccc3c(c2)c2ccccc2n3CC)c(Br)c1
→ 101, 99
> Cc1ccc(S(=O)(=O)C(CNS(=O)(=O)c2ccc(F)c(C(F)(F)F)c2)c2ccco2)cc1 (configuration not stated)
→ 106, 113
> Cc1c(C(=O)N2CCCC2)oc2c1-c1nn(CC(=O)NCc3cccc(F)c3)cc1CC2
→ 105, 108
> COc1cccc(N2CCN(C(=O)C3CCN(S(=O)(=O)c4cn(C)cn4)CC3)CC2)c1
→ 111, 100
> COc1ccc(NC(=O)C2CCN(S(=O)(=O)c3cn(C)cn3)CC2)cc1Cl
→ 106, 112
> COc1ccc(-c2cc(C(F)(F)F)n3nc(C(=O)Nc4cc(C(F)(F)F)ccc4Cl)cc3n2)cc1OC
→ 107, 106
> CCOC(=O)c1ccc(N2CCN(c3ccccc3OC)CC2)c(NC(=O)Nc2ccc(CC)cc2)c1
→ 108, 102
> CSc1oc(-c2cccs2)nc1S(=O)(=O)c1ccc(Br)cc1
→ 104, 109
> Cc1ccc(-n2c(=O)c3c(C)c(C(=O)N(C)C)sc3n(CC(=O)C(C)(C)C)c2=O)cc1C
→ 110, 111
> COc1ccc(CCNC(=O)c2ccc3c(c2)N(Cc2cccc(Cl)c2)C(=O)CS3)cc1OC
→ 102, 105
> Cc1ccc2c(=O)cc(C(=O)Nc3ccc(S(=O)(=O)Nc4nc(C)cc(C)n4)cc3)oc2c1
→ 109, 105
> Cc1ccc2c(c1)-c1c(c(C(=O)N3CCN(c4cc(C)ccc4C)CC3)nn1C)CS2
→ 30, 206
> Cc1ccc(N2CC(NC(=O)Cc3cccs3)CC2=O)cc1C (configuration not stated)
→ 108, 113
> COc1cc(C(=O)Nc2ccc3nc(SCc4ccccc4)sc3c2)cc(OC)c1OC
→ 109, 118
> O=C(NCCc1nc2ccccc2n1CCOc1ccc(Cl)cc1)C1CCCCC1
→ 105, 104
> CC(=O)N1CCCc2cc(S(=O)(=O)N(C)CC(=O)Nc3ccc(C(C)C)cc3)ccc21
→ 110, 110
> O=C(NCc1ccc(F)cc1)C(=O)NCC(c1ccco1)S(=O)(=O)c1cccs1 (configuration not stated)
→ 114, 97
> CCC(C)NC(=O)CCCn1c(=O)c2cccn2c2ccccc21 (configuration not stated)
→ 117, 119
> CCN(C(=O)CCS(=O)(=O)c1ccc2c(c1)CCN2C(C)=O)c1cccc(C(F)(F)F)c1
→ 112, 113
> Cc1cccc(N(C)C(=O)c2cc3c(=O)oc4ccc(C)cc4c3s2)c1
→ 102, 107
> CCOC(=O)c1cc(-c2ccccc2)n(-c2cccc(C(=O)Nc3ccc(F)c(F)c3)c2)c1C
→ 107, 113
> COc1cc(OC)cc(C(=O)N2CCC(c3ccncc3)CC2)c1
→ 103, 105
> Cc1ccc(-n2nc(C(=O)N3CCN(c4cc(Cl)ccc4C)CC3)c3c4ccccc4n(C)c3c2=O)cc1
→ 104, 105
> CCOc1ccc(N2CC(NC(=O)CCc3ccccc3)CC2=O)cc1 (configuration not stated)
→ 101, 100
> CC(C)Oc1ccc(CNC(=O)CN2C(=O)c3cccnc3Oc3ccc(Cl)cc32)cc1
→ 104, 97
> COc1ccc(-c2[nH]c(-c3ccc(F)cc3)nc2SCC(=O)Nc2ccc(OC)c(OC)c2)cc1
→ 111, 109
> O=C(Cn1cc(S(=O)(=O)Cc2cccc(Cl)c2)c2ccccc21)NCc1ccccc1Cl
→ 104, 111
> CCN(C(=O)C1CCCN(c2ncnc3c2nc2n3CCCCC2)C1)c1cccc(C)c1 (configuration not stated)
→ 106, 112
> Cc1ccc(CCNC(=O)c2cc3c(=O)n(C)c4ccccc4c3n2C)cc1
→ 106, 111
> COc1cc(Cl)c(C)cc1NC(=O)CCc1nc2cccnc2n1Cc1cccs1
→ 117, 167
> CNS(=O)(=O)c1cn(CC(=O)N2CCN(c3ccc(Cl)cc3)CC2)cc1S(=O)(=O)NC
→ 108, 96
> Cc1ccc(NC(=O)CN2C(=O)COc3ccc(S(=O)(=O)N4CCCCCC4)cc32)cc1Cl
→ 121, 104
> Cc1ccc(C)c(Cn2c(-c3cccs3)nc3ccccc32)c1
→ 103, 102
> CN(C)C(=O)c1ccc2c(c1)N(CC(=O)NCc1ccc(F)cc1)C(=O)C1CCCCN21 (configuration not stated)
→ 113, 116
> COc1ccc(C(=O)Nc2cc(-c3ccccc3)nn2-c2ccccc2)cc1
→ 106, 107
> Cc1ccc(-c2cc3ncc4c(n3n2)-c2ccccc2OC4)cc1
→ 105, 104
> CCOc1ccccc1CNC(=O)c1oc2c(c1C)-c1[nH]ncc1CC2
→ 108, 94
> O=C(Nc1nc2c(s1)CCCC2)c1ccccc1F
→ 102, 98
> CCOc1ccc(-c2cn3c(n2)sc2cc(C(=O)NCCCN(CC)CC)ccc23)cc1
→ 101, 91
> CCc1ccccc1NC(=O)c1ccc2c(SCC(=O)O)c3c(nc2c1)CCC3
→ 101, 103
> COc1ccc(NC(=O)c2nc(S(C)(=O)=O)ncc2N(Cc2ccc(C)cc2)Cc2ccco2)cc1Cl
→ 114, 103
> Cc1ccccc1NC(=O)Nc1nnc(N2CCCCCC2)s1
→ 112, 112
> Cc1cccc(C(=O)Nc2ccc(OCc3cc(=O)n4ccc(C)cc4n3)cc2)c1
→ 104, 108
> CCOc1cccc(CC(=O)N2CCc3c([nH]c4ccccc34)C2c2ccc(SC)cc2)c1OCC (configuration not stated)
→ 109, 109

Four entries out of the list, sorted by length of the SMILES, falling:
Results follow in this order: Polio RdRp inh, Polio RdRp inh intensity
> Cc1ccc(-n2nc(C(=O)N3CCN(c4cc(Cl)ccc4C)CC3)c3c4ccccc4n(C)c3c2=O)cc1
→ 104, 105
> CCN(C(=O)CCS(=O)(=O)c1ccc2c(c1)CCN2C(C)=O)c1cccc(C(F)(F)F)c1
→ 112, 113
> CC(=O)N1CCCc2cc(S(=O)(=O)N(C)CC(=O)Nc3ccc(C(C)C)cc3)ccc21
→ 110, 110
> Cc1ccc(C)c(Cn2c(-c3cccs3)nc3ccccc32)c1
→ 103, 102

Additional compounds
Results follow in this order: Polio RdRp inh, Polio RdRp inh intensity
> COc1ccc(CNC(=O)c2ccc(-c3nc(CSc4ccccc4)c(C)o3)cc2)c(OC)c1
→ 112, 109
> Cc1ccc(Cn2c(=O)c3cccnc3n(CC(=O)Nc3cccc(C(F)(F)F)c3)c2=O)cc1
→ 108, 114
> CC1CCCCN1C(=O)c1ccc2c(c1)N(Cc1cccc(Cl)c1)C(=O)c1ccccc1S2=O (configuration not stated)
→ 110, 114
> CCCCn1cc(S(=O)(=O)c2cccc(C)c2)c(=O)c2cc(F)c(N3CCOCC3)cc21
→ 109, 107
> Cc1cn2c(=O)cc(COc3ccccc3NC(=O)c3ccccc3C)nc2s1
→ 108, 107
> CCOc1ccc(NC(=O)C2CCN(S(=O)(=O)c3ccc4c(c3)oc(=O)n4C)CC2)cc1
→ 109, 112
> COc1ccc(NC(=O)C2=C(C)Nc3ncnn3C2c2ccc(O)cc2)cc1 (configuration not stated)
→ 110, 114
> COc1ccc(N2CCN(C(=O)Cc3c(C(=O)O)c(C)cn3C)CC2)cc1
→ 105, 110
> COc1cccc(-c2nc(CS(=O)(=O)CC(=O)Nc3ccc(C)c(Cl)c3)c(C)o2)c1
→ 103, 96
> CC(=O)c1ccc(NC(=O)CC2Nc3cc(C)c(C)cc3NC2=O)cc1 (configuration not stated)
→ 106, 111
> CCN1CCC(N(Cc2ccc3c(c2)OCO3)C(=O)Nc2cccc(C)c2C)CC1
→ 116, 118
> COc1ccc(-c2cc(C)no2)cc1S(=O)(=O)N1CCOc2ccc(Cl)cc21
→ 111, 116
> CC(=O)c1ccc(NC(=O)Cn2c(=O)oc3cc(S(=O)(=O)N4CCCCC4)ccc32)cc1
→ 106, 103
> Cc1ccc(-n2ncc(C(=O)NCc3ccco3)c2C2CCN(C(=O)OC(C)(C)C)CC2)c(C)c1
→ 107, 114
> CN(C)c1ccc(C(CNC(=O)c2ccccc2C(F)(F)F)N2CCOCC2)cc1 (configuration not stated)
→ 106, 112
> Cc1ccc(N2C(=O)[C@@H]3CSC(c4ccc(C(F)(F)F)cc4)N3C2=O)cc1 (some centres not stated)
→ 106, 100
> CCC(=O)N1CCc2cc(Br)cc(S(=O)(=O)NCc3ccc(Cl)cc3)c21
→ 104, 106
> CCCCc1nn2c(=O)cc(COC(=O)c3ccc(NC(=O)CCc4ccccc4)cc3)nc2s1
→ 101, 107
